NPYLR7 ag = mosquito NPYLR7 agonism; HEK293T NPYLR7/Galpha15, GCaMP6s calcium fluorescence; activation, % at 10 µM; 270,000 compounds, 0.15% hits; AID 1259423; in the data active means activation above about 40%;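 further: 0% = vehicle and 100% = reference agonist at the receptor; some compounds past the cut are filed as inactive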
NPYLR7 ag max-min = further read-out of NPYLR7 ag, marked with its call; activation, %; measured here: Max-Min RFU normalised activation; some inactives read as strong as hits;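 span of the calcium signal over five minutes; 0% = vehicle and 100% = native peptide agonist; compound fluorescence can raise it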
* marks the source's active call; other numbers are inactive results; & = joins results of further samples.

SMILES	NPYLR7 ag	NPYLR7 ag max-min
CC(c1ccccc1Cl)N1CCN(C(=O)c2ccc[nH]c2=O)CC1 (stereo not given)	12	3
CCS(=O)(=O)Oc1cccc(CN(CC2CCCO2)C(=O)c2ccco2)c1 (stereo not given)	21	20
Cc1nc(CCNC(=O)C2CC(=O)OC23CCCC3)cc(=O)[nH]1 (stereo not given)	12	10
Cc1cc(COC(=O)C2CCCN2C(=O)C2CC2)on1 (stereo not given)	12	9
CON=C1CCN(S(=O)(=O)c2c(C)n[nH]c2C)CC1	2	0
C=CCn1c(-c2sc(NC(=O)CCc3ccc(C(C)(C)C)cc3)nc2C)n[nH]c1=S	12	13
Cc1oc(-c2ccccc2)nc1CC(=O)N1CC[C@H](CO)[C@H](O)C1	3	0
CN(CC1COc2ccccc2O1)C(=O)c1ccc(-c2cncnc2)nc1 (stereo not given)	-3	-12
CC(C)NC(=O)Nc1ccc(CNC(=O)CC(c2ccccc2)c2ccccc2)cc1	3	2
O=c1cc(CN2CCCC(O)(CO)C2)nc2ccc(Cl)cn12 (stereo not given)	3	16
COCCOC(=O)C1=C(C)NC(=O)NC1c1sccc1C (stereo not given)	-1	-3
CC(Sc1ncnc2c1cnn2-c1ccc(F)cc1)C(=O)NC(C)(C)C (stereo not given)	-12	-14
O=C(NCc1c(F)cccc1F)c1cn(C/C=C/c2ccccc2)nn1	11	3
COc1ccc(C2=NOC(CN(Cc3cccc(C(F)(F)F)c3)C(=O)C3CCCC3)C2)cc1 (stereo not given)	3	12
Cc1nn(-c2cccc(Cl)c2)nc1C(=O)N1CCCCC1C(N)=O (stereo not given)	7	5
CCN1CC(CN(C)Cc2cn(-c3cc(C)ccc3C)nc2-c2ccccc2)CC1=O (stereo not given)	-1	-4
CCC(CC)n1ncc(C)c1NC(=O)c1cccc2nccnc12	6	-5
Cc1c(C2Nc3ccccc3C(=O)N2C2CC2)cc(C#N)n1C (stereo not given)	12	9
Nc1nc(NC(=S)NC2CCS(=O)(=O)C2)n[nH]1 (stereo not given)	3	0
COc1cc(/C=N\Nc2nc(N3CCCC3)nc(N3CCCC3)n2)ccc1O	2	-3
CCc1cccc(NC(=O)CCC(=O)NCc2ncc[nH]2)c1	5	-5
Cc1c(C(=O)NCc2cccs2)sc(=O)n1Cc1ccccc1C#N	8	1
CCOC(=O)N1CCC(n2cc3ncccc3c2O)CC1	1	-1
COc1cccc(OC)c1C(=O)Nc1c2c(nn1C(C)(C)C)CS(=O)C2 (stereo not given)	-1	-3
CCC(CNC(=O)N(C)Cc1ccc(N(C)C)cc1)N1CCc2ccccc2C1 (stereo not given)	12	9
(list continues)
SMILES	NPYLR7 ag	NPYLR7 ag max-min
Cc1cc(C=NNc2nc(-c3ccc(F)cc3)cs2)c(C)n1C1CCCC1	-4	-7
Cc1ccc2[nH]c(CN(Cc3nccn3C)C3CC3)c(C)c2c1	23	10
CCCC(=O)Nc1cc(-c2cn3cccnc3n2)ccc1C	10	13
C=CCn1c(-c2ccccc2C)n[nH]c1=S	-1	8
C=CCCC(O)CN(CCCOC)Cc1ccc(F)cc1F (stereo not given)	38	30
Nc1cc(C(=O)N2CCCCC2CCN2CCCC2=O)ccn1 (stereo not given)	2	21
CC(C)Cc1nc(-c2ccc(CN3CCN(C(=O)C4CCCO4)CC3)cc2)no1 (stereo not given)	4	3
Clc1ccc2noc(-c3ccccc3)c2c1	3	2
Cc1cc(=O)n2nc(N3CCCC(C(=O)NC4CCC(C)CC4)C3)sc2n1 (stereo not given)	1	0
Cc1ccccc1NC(=O)CC(=O)NC(CC(C)C)c1ncnn1C (stereo not given)	0	-5
Cc1nn(-c2ccccc2)c(Cl)c1C1C2=C(CC(C)(C)CC2=O)OC(=N)C1C#N (stereo not given)	4	5
Oc1c(C(c2ccccn2)N2CCCC2)cc(Cl)c2cccnc12 (stereo not given)	3	9
CC(C)/C=C/C(=O)N1CCCC(N2CCN(c3cccc(C(F)(F)F)c3)CC2)C1 (stereo not given)	16	8
O=C(c1ccc(OC2CCN(CCc3ccccc3)CC2)cc1)N1CCSCC1	6	3
COc1ccc(S(=O)(=O)Nc2nc(C(=O)Nc3ccccc3OC)cs2)cc1	-9	-9
CCOC(=O)Nc1cc(C(F)(F)F)ccc1C(F)(F)F	5	5
Cc1ccccc1CCC1CCCN(C(=O)c2ccc3nnnn3c2)C1 (stereo not given)	-10	-15
O=C1NC2(CCN(Cc3cccc(Cl)c3)CC2)Nc2cccc(F)c21	7	17
O=C(c1cc(-c2cccs2)nn1-c1ccc(Cl)cc1)N1CCC(Cc2ccccc2)CC1	-4	-4
COCC(=O)Nc1ccc(-c2c(C)cccc2C)cc1	6	-7
CC(Oc1ccc(F)cc1)C(=O)NNS(=O)(=O)c1ccc(Cl)s1 (stereo not given)	8	13
CCCS(=O)(=O)N1CCC(n2cc(Cc3ccccc3)nn2)CC1	-1	-5
CN1CCCCC1CCNC(=O)c1ccc(NCc2ccc3c(c2)OCO3)nc1 (stereo not given)	4	1
Cc1cc(C)c(C(=O)CCCC(=O)Nc2ccc(CC(N)=O)cc2)c(C)c1	2	1
COc1cccc(CN(Cc2cccc(C(F)(F)F)c2)Cc2nc(C(=O)NC3CC3)co2)c1	22	16
Additional entries follow.
SMILES	NPYLR7 ag	NPYLR7 ag max-min
CCOc1ccc(-c2ccc(=O)n(Cc3ccccc3)n2)cc1	12	2
CCOc1ccc2ccccc2c1C(=O)NC(c1ccc(S(C)(=O)=O)cc1)c1cccc(N(C)C)c1 (stereo not given)	-3	-11
Cc1cc(C)cc(N(C)S(=O)(=O)c2ccc(C(=O)O)cc2F)c1	4&-22	-10&-24
CC(NC(=O)C1Cc2ccccc2O1)c1ccc(Cl)s1 (stereo not given)	2	2
Cc1ccc(NCc2cn3cc(Br)ccc3n2)c(F)c1	-14	-13
CN(C)C1(CNCc2c(Cl)nc(Cl)n2C)CCCC1	9&3	2&-1
CCc1nc2ccc(C(=O)N(C)CCCN(C)C)cn2c1N(C)Cc1ccc(Cl)cc1	-6	-11
O=[N+]([O-])c1ccc(CSc2nc3ccccc3[nH]2)cc1	6&0	6&0
C=CCn1c(=O)c2c(nc3n(CC(C)C)c(C)cn23)n(C)c1=O	0	-1
CC(C)(C)Cc1noc2nc(C3CC3)cc(C(=O)NC3=NCCS3)c12	0	35
Cc1nn(-c2ccccc2)c(C)c1CNS(=O)(=O)c1cccc2nsnc12	-4	-4
CCC1(C)NC(=O)N(NC(=O)COC(=O)/C=C/c2c(C)nn(Cc3ccc(C)cc3)c2C)C1=O (stereo not given)	6	14
COc1ccc(-c2csc(=Nc3cc(OC)cc(OC)c3)n2CCc2cccc(C(F)(F)F)c2)cc1	-10	-18
CCOC(=O)C1(Cc2ccccc2C)CCCN(C(=O)c2scc3c2OCCO3)C1 (stereo not given)	-5&-12	-10&-16
CC(C)c1ccccc1NC(=O)c1ccc(CSc2ccc3ccccc3n2)cc1	0	-4
CC(C)Cn1nnnc1SCc1cc(Cl)c2c(c1)OCCCO2	2	1
COc1ccccc1N=C1SC(C(=O)Nc2ccccc2OC)CC(=O)N1C (stereo not given)	-1	-2
Cc1nnsc1CN(C)C(=O)c1n[nH]c2ccccc12	9	1
CCN(CC)c1nc(N(CC)CC)[nH]c(=O)n1	3	2
CCCNc1ncc(CN2CC(c3ccncc3)C2)cn1	3	-2
Clc1ccc(Oc2cc(N3CCCNCC3)ncn2)cc1	-18	-11
CCOC(=O)C1(Cc2cccc(Cl)c2)CCCN(C(=O)c2cc(C(F)(F)F)[nH]n2)C1 (stereo not given)	9	4
Cn1c(-c2ccc(F)cc2)nn(CN2CCC(C(=O)c3ccccc3)CC2)c1=S	2	9
CCc1nnc(NC(=O)CSc2ccc(Cl)cc2)s1	5	8
CN(CCOCc1ccccc1)C(=O)c1ccc(Cl)cn1	2	0

A second format for part of the listing above:
Values run as follows: NPYLR7 ag, NPYLR7 ag max-min
> CCOc1ccc2ccccc2c1C(=O)NC(c1ccc(S(C)(=O)=O)cc1)c1cccc(N(C)C)c1 (stereo not given)
 : -3, -11
> Cc1cc(C)cc(N(C)S(=O)(=O)c2ccc(C(=O)O)cc2F)c1
 : 4&-22, -10&-24
> CC(NC(=O)C1Cc2ccccc2O1)c1ccc(Cl)s1 (stereo not given)
 : 2, 2
> Cc1ccc(NCc2cn3cc(Br)ccc3n2)c(F)c1
 : -14, -13
> CN(C)C1(CNCc2c(Cl)nc(Cl)n2C)CCCC1
 : 9&3, 2&-1
> CCc1nc2ccc(C(=O)N(C)CCCN(C)C)cn2c1N(C)Cc1ccc(Cl)cc1
 : -6, -11
> O=[N+]([O-])c1ccc(CSc2nc3ccccc3[nH]2)cc1
 : 6&0, 6&0
> C=CCn1c(=O)c2c(nc3n(CC(C)C)c(C)cn23)n(C)c1=O
 : 0, -1
> CC(C)(C)Cc1noc2nc(C3CC3)cc(C(=O)NC3=NCCS3)c12
 : 0, 35
> Cc1nn(-c2ccccc2)c(C)c1CNS(=O)(=O)c1cccc2nsnc12
 : -4, -4
> CCC1(C)NC(=O)N(NC(=O)COC(=O)/C=C/c2c(C)nn(Cc3ccc(C)cc3)c2C)C1=O (stereo not given)
 : 6, 14
> COc1ccc(-c2csc(=Nc3cc(OC)cc(OC)c3)n2CCc2cccc(C(F)(F)F)c2)cc1
 : -10, -18
> CCOC(=O)C1(Cc2ccccc2C)CCCN(C(=O)c2scc3c2OCCO3)C1 (stereo not given)
 : -5&-12, -10&-16
> CC(C)c1ccccc1NC(=O)c1ccc(CSc2ccc3ccccc3n2)cc1
 : 0, -4
> CC(C)Cn1nnnc1SCc1cc(Cl)c2c(c1)OCCCO2
 : 2, 1
> COc1ccccc1N=C1SC(C(=O)Nc2ccccc2OC)CC(=O)N1C (stereo not given)
 : -1, -2
> Cc1nnsc1CN(C)C(=O)c1n[nH]c2ccccc12
 : 9, 1
> CCN(CC)c1nc(N(CC)CC)[nH]c(=O)n1
 : 3, 2
> CCCNc1ncc(CN2CC(c3ccncc3)C2)cn1
 : 3, -2
> Clc1ccc(Oc2cc(N3CCCNCC3)ncn2)cc1
 : -18, -11
> CCOC(=O)C1(Cc2cccc(Cl)c2)CCCN(C(=O)c2cc(C(F)(F)F)[nH]n2)C1 (stereo not given)
 : 9, 4
> Cn1c(-c2ccc(F)cc2)nn(CN2CCC(C(=O)c3ccccc3)CC2)c1=S
 : 2, 9
> CCc1nnc(NC(=O)CSc2ccc(Cl)cc2)s1
 : 5, 8
> CN(CCOCc1ccccc1)C(=O)c1ccc(Cl)cn1
 : 2, 0

The listing continues:
SMILES	NPYLR7 ag	NPYLR7 ag max-min
Cc1ccccc1CN(C)C(C)C(=O)Nc1ccc(C#N)cc1 (stereo not given)	-3	-3
COc1ccc(-c2noc(-c3ccc(N4CCN5CCCC5C4)nc3)n2)cc1 (stereo not given)	12	7
CC(=O)Nc1ccc(CN2CCN(Cc3cccc(C)n3)C(CCO)C2)cc1 (stereo not given)	4	0
OC1CCCCC1NCc1csc(-c2cccs2)n1 (stereo not given)	0	-3
COc1ccc(CCOC(=O)[C@@H]2CCCN2C(=O)C2=Cc3cc(Cl)ccc3OC2)cc1OC	-10	-17
CCONC(=O)c1cc2n(n1)CCN(Cc1cc(OC)cc(OC)c1)C2=O	23	21
O=C(O)c1nccnc1C(=O)N1CCN(c2ccccc2)CC1	-19	-22
O=C(CCc1ccco1)N1CCN(S(=O)(=O)c2cccc(Br)c2)CC1	-1	3
COc1ccccc1C1CC(c2ccc(F)cc2)=NN1C(=O)CN1CCc2ccccc2C1 (stereo not given)	17	15
COc1ccc(NC(=O)C2(C)CCCN(C)C2)cc1F (stereo not given)	2	2
O=[N+]([O-])c1ccc2oc(=S)[nH]c2c1	5	8
O=C(Cc1ccc2c(c1)NC(=O)CO2)NCc1cccnc1N1CCCCCCC1	-4	-5
COc1cc(C=CC(=O)N2CCCC2c2cc(OC)ccc2OC)cc(OC)c1 (stereo not given)	-3	-3
COc1ccc(C(=O)O)cc1NCc1ccc(C)s1	5	2
O=C(C1CSCN1C(=O)c1ccc(Cl)cc1F)N1CCCCC1 (stereo not given)	-11	-11
Cc1csc(CN2CC[C@@H](c3ccc4c(c3)OCO4)[C@H](O)C2)n1	5	3
COCCN=c1scc(-c2cccs2)n1N=Cc1c(O)ccc2ccccc12	-7	-12
O=C(Nc1ccc2c(c1)CN(C(=O)Cn1c(=O)oc3ccccc31)CC2)C1CCCO1 (stereo not given)	6	5
O=c1oc2ccccc2n1CCN(Cc1ccsc1)CC1CCCO1 (stereo not given)	1	6
OC1CCN(Cc2ccccc2CNC2CCOCC2)CC1	6	1

Fetched one by one from the list above, 3 records:
SMILES	NPYLR7 ag	NPYLR7 ag max-min
O=c1oc2ccccc2n1CCN(Cc1ccsc1)CC1CCCO1 (stereo not given)	1	6
O=C(C1CSCN1C(=O)c1ccc(Cl)cc1F)N1CCCCC1 (stereo not given)	-11	-11
O=C(O)c1nccnc1C(=O)N1CCN(c2ccccc2)CC1	-19	-22

High-throughput results from PubChem BioAssay.

The list is partial. The share of hits here may be higher or lower than overall.
